Screens (PubChem BioAssay)
RVFV N-RNA FP: blocks Rift Valley Fever Virus nucleoprotein binding to RNA; AID 651828; % bound, % (no concentration beside the values); hit rate 0.1% among 20,000; P21700; RVFV N-RNA binding, fluorescence polarization; stronger effect = lower value;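 active means between 0 and 58% in either replicate with normal brightness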;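 further: 100 nL library stock added to about 12 µL; 100% = protein and probe without compound and 0% = probe alone; numbers are from one replicate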
Target sequence (P21700 whole entry, looked up): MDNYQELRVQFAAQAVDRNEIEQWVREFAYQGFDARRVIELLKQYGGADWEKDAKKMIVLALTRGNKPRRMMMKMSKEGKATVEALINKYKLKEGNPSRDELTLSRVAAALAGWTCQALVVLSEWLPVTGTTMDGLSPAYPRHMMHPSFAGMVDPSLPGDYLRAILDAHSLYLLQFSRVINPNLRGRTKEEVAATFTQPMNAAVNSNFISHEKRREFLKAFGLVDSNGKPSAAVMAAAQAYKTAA
* hit, by the source's call; & = joins results of further samples. Not all compounds are listed; the hit share may differ from the screen's.

SMILES | RVFV N-RNA FP
O=C1/C(=C/c2ccncc2)COc2ccccc21 | 101
CCC(=O)Nc1ccc(C(=O)n2nnc3ccccc32)cc1 | 94
Cc1ccc2c(c1)C(N1CCN(C)CC1)=Nc1cccnc1N2 | 103
O=C(Nc1ccc(-c2cn[nH]c2)cc1)C1COc2ccccc2O1 (configuration not stated) | 102
O=CNc1ccccc1Oc1c(F)c(F)c(F)c(F)c1F | 98
Cc1ccc(S(=O)(=O)NC2CC2)cc1C(N)=O | 102
CC(C)C(=O)NNc1cc(C(F)(F)F)ccn1 | 96
Cc1cc(C)c(-c2cc(C(F)(F)F)nc(-c3ccccc3)n2)c(=O)[nH]1 | 87
Cc1[nH]nc2c1C(=O)CC(C)(C)C2 | 96
O=C(O)CCCC[C@@H]1CCSS1 | 95
Cc1ccccc1C(=O)N(C)Cc1ccccc1 | 97
Cc1ccc(SCC(=O)N2CC(=O)Nc3ccccc32)cc1 | 97
O=C(O)CSCC(=O)N1CCN(c2ncccn2)CC1 | 96
[O-][n+]1onc2cc(Cl)ccc21 | 92
Cc1oc(-c2cc(Cl)ccc2Cl)cc1-c1nn2c(C)nnc2s1 | 96
COC(=O)c1ccc(CN2CCCC(c3nc4ccccc4[nH]3)C2)o1 (configuration not stated) | 94
O=C(Nc1ccc(S(=O)(=O)Nc2ccccc2)cc1)N1CCCC1 | 95
O=C(/C=C/C(=O)Nc1cccc(O)c1)Nc1cccc(O)c1 | 96
Nc1nn(S(=O)(=O)c2ccc(Br)cc2)cc1-c1ccccc1 | 96
CN1C2CCC1CC(O)C2 (configuration not stated) | 100
CCN(CC)C(=O)c1sc2nc3c(cc2c1N)C1CCN3CC1 | 100
Cc1[nH]c2ccccc2c(=O)c1CN(C)C | 93
CC(=O)NC(=S)Nc1cccc(-c2nc3c(ccc4ccccc43)o2)c1 | 91
COC(CNC(=S)Nc1ccc(Cl)cc1)OC | 90
CCCN(CCC)C(=O)Cc1ccc(F)cc1 | 99
Additional entries follow.
SMILES | RVFV N-RNA FP
NS(=O)(=O)c1cc2c(cc1C(F)(F)F)NCNS2(=O)=O | 98
CCOc1ccc(NC(=O)Cc2cccc3c(S(=O)O)cccc23)cc1 | 95
CC1=NCCCN1C(=O)c1c(-c2c(Cl)cccc2Cl)noc1C | 103
COC(=O)c1ccc(COc2coc(CN3CCc4ccccc4C3)cc2=O)cc1 | 93
Cc1nn(-c2ccccc2)nc1CNS(=O)(=O)c1ccc(-c2ccno2)s1 | 97
CCc1c(C)[nH]c(C(=O)OC(C)(C)C)c1C | 104
O=C(O)C(Cc1cnc[nH]1)N1C(=O)C2C3c4ccccc4C(c4ccccc43)C2C1=O (configuration not stated) | 93
CNC(=O)c1ccsc1NC(=O)c1ccc(S(C)(=O)=O)cc1 | 101
CC1(C)CC(=O)C(N=Nc2ccccc2C(F)(F)F)=C(O)C1 | 95
Cc1cccc(Nc2ccncc2S(=O)(=O)NC(=O)NC(C)C)c1 | 102
CNCCc1c[nH]c2ccc(O)cc12 | 96
CC1OCN(c2ccc(OC(F)(F)F)cc2)Cn2c1nc1ccccc12 (configuration not stated) | 96
O=C(O)CCCc1ccc(/C=N/O)s1 | 87
Cc1ccc2nc(SCc3ccccc3C#N)[nH]c2c1 | 102
CCC1CCC(N(CC)CCN(C)C)CC1 (configuration not stated) | 112
COc1cc(OC)cc(C(C)(C)OC(=O)N2CCC[C@H]2C(=O)O)c1 | 98
O=C(Nc1ccncc1)Nc1c(Cl)cc(Cl)cc1Cl | 109
NN1C(=O)CSC1=Nc1ccccc1 | 94
CN1CCN(C2=NC(C(=O)Nc3ccccc3)CC(=O)N2)CC1 (configuration not stated) | 108
N#CC(C#N)=CNc1cccc(NC(=O)c2cccc(Cl)c2)n1 | 101
NN=C1c2ccccc2-c2ccccc21 | 95
CC(C)Nc1cccnc1N1CCN(C(=O)c2cc3cc(NS(C)(=O)=O)ccc3[nH]2)CC1 | 95
O=C(Oc1coc(CSc2nnc(NC(=O)C3CC3)s2)cc1=O)c1cccs1 | 89
Cc1[nH]c2ccc(O)cc2c1CCN | 95
COc1ccc(CC(C(=O)O)N2C(=O)c3ccccc3C2=O)cc1 (configuration not stated) | 92

In a second layout: entries from further up
> NN1C(=O)CSC1=Nc1ccccc1
- RVFV N-RNA FP: 94
> NS(=O)(=O)c1cc2c(cc1C(F)(F)F)NCNS2(=O)=O
- RVFV N-RNA FP: 98
> N#CC(C#N)=CNc1cccc(NC(=O)c2cccc(Cl)c2)n1
- RVFV N-RNA FP: 101
> NN=C1c2ccccc2-c2ccccc21
- RVFV N-RNA FP: 95

(further entries)
SMILES | RVFV N-RNA FP
COc1cc(/C=C(\C#N)C(=O)Nc2nnc(C(F)(F)F)s2)ccc1OCc1ccc(C(F)(F)F)cc1C(F)(F)F | 94
C#CCOC(=O)Nc1ccc(OCC(F)(F)F)nc1 | 94
CN1CCC[C@@H]1CCO[C@](C)(c1ccccc1)c1ccc(Cl)cc1 | 99
CCS(=O)(=O)CCSc1nsc(SCCS(=O)(=O)CC)c1C#N | 106
O=C(CCc1ccccc1)Nc1ccc(-c2nnc(-c3ccccc3)o2)cc1 | 97
O=S(=O)(c1ccc(-c2ccc(S(=O)(=O)N3CCSCC3)cc2)cc1)N1CCSCC1 | 89
Oc1[nH]c2ccccc2c1C=NCCCN1CCOCC1 | 112
COC(=O)Nc1ccc(S(=O)(=O)Nc2cc(OC)nc(OC)n2)cc1 | 96
Cn1c(=O)c2c(nc(/C=C/c3cccc(Cl)c3)n2C)n(C)c1=O | 96
COc1cccc(-c2nn(-c3ccccc3)cc2C(=O)NCC(=O)O)c1 | 98
COc1ccc2c(c1)c(CC(=O)O)c(C)n2C(=O)c1ccc(Cl)cc1 | 102&96&94
Cc1nn(Cc2nc(-c3ccc4c(c3)OCO4)no2)c(C)c1Br | 89
COC(=O)C(O)(c1c(C)nn(-c2ccccc2)c1N)C(F)(F)F (configuration not stated) | 90
O=C(Nc1c2c(nn1-c1ccccc1)CS(=O)C2)C12CC3CC(CC(C3)C1)C2 (configuration not stated) | 102
CSc1c[nH]n(-c2ccccc2)c(=O)c1=O | 93
CN1C(=O)C(c2c[nH]c3ccccc23)=C(c2c[nH]c3ccccc23)C1=O | 97
Cc1cc(C(=O)NN)nn1-c1c(Cl)cc(Cl)cc1Cl | 101
CSc1sc(C(=O)NN=NC(C)C)c2c1C(O)CCC2 (configuration not stated) | 93
CN(C)CC/C=C1\c2ccccc2COc2ccccc21 | 110&99
CCOC(=O)CNc1ncnc2nc[nH]c12 | 94
O=C(CN1CCOCC1)N1N=C(c2ccc(Cl)cc2)CC1c1ccco1 (configuration not stated) | 96
CC(C)(C)C(=O)Nc1cccc(C(=O)NN)c1 | 101
CC(C)(O)[C@@H]1[C@H]2OC(=O)[C@@H]1[C@]1(O)C[C@H]3O[C@]34C(=O)O[C@H]2[C@]14C (tested in a mixture with another compound) | 97&91
CCN(CC)CCCC(C)Nc1ccnc2cc(Cl)ccc12 (configuration not stated) | 89&93
COc1cc(OC)c(C2=NOC(C(=O)Nc3ncn(CC(=O)N4CCC(C)CC4)n3)C2)cc1Cl (configuration not stated) | 88

Structural class, the compounds so far with a tert-butyl group (2)
SMILES | RVFV N-RNA FP
CCc1c(C)[nH]c(C(=O)OC(C)(C)C)c1C | 104
CC(C)(C)C(=O)Nc1cccc(C(=O)NN)c1 | 101

Next part:
SMILES | RVFV N-RNA FP
CSc1ccc(CNc2ccc(S(N)(=O)=O)cc2)cc1 | 89
Cc1cc(=O)n2[nH]c(NCc3ccccc3)nc2n1 | 91
CC(=O)Nc1nnc(SC(C)C(=O)Nc2ccc(S(N)(=O)=O)cc2)s1 (configuration not stated) | 90
Cc1ccc(N2C(=O)c3cccc4c(N5CCN(C)CC5)ccc(c34)C2=O)c2cccnc12 | 55*
O=C1NC(=O)C2C1C(c1ccccc1)N1C3C(=O)NC(=O)C3C(c3ccccc3)N21 (configuration not stated) | 101
Nc1c(S(=O)(=O)O)cc(Nc2ccc(Nc3nc(Cl)nc(Nc4ccc(S(=O)(=O)O)cc4)n3)c(S(=O)(=O)O)c2)c2c1C(=O)c1ccccc1C2=O | 72
CCN(CCC#N)c1ccccc1 | 94
Cc1ccccc1-n1c(Cn2c(=O)sc3ccccc32)n[nH]c1=S | 93
CN1CCN(c2nc(-c3cccs3)cc(C(F)(F)F)n2)CC1 | 99
COC(=O)C1=C(NNc2ncc(Cl)cc2C(F)(F)F)CSC1 | 94
CN1C(=O)c2ccc(NC(=O)c3c(F)c(F)c(F)c(F)c3F)cc2C1=O | 103
Cc1nnsc1-c1n[nH]c(C)c1C(=O)NN | 99
NS(=O)(=O)Cc1noc2ccccc12 | 96&97
FC(F)(F)c1ccc(NCn2nnc3ccccc32)cc1 | 99
O=C(COc1cccc2c1CCN(Cc1ccccc1)C2=O)Nc1ccc2c(c1)OCCO2 | 97
CCOc1ccc(NC(=O)c2cc3ccccc3o2)cc1OCC | 95
CC(=N\O)/C(=N\O)c1cccs1 | 99
S=C(NCc1ccccc1)NC1CC1 | 93
CC(C)N1C(=O)CC(Nc2cccc3cccc(N)c23)C1=O (configuration not stated) | 99
O=C(Nc1c[nH]c2ccccc12)N1CCOCC1 | 94
CCOC(=O)C1=C(C(C)C)NC(=O)NC1c1ccc(F)cc1 (configuration not stated) | 93
CCCN(CCC)[C@@H]1CCc2ccc(O)cc2C1 | 99
Cc1csc2c(N3CCN(C(=S)NCC4CC4)CC3)ncnc12 | 95
CC(Sc1ncn(-c2ccccc2)n1)C(=O)Nc1ccc(Cl)cc1 (configuration not stated) | 91
C/C(=N/NC(=O)CC1=NNC(=O)C1)c1ccc(Br)cc1 | 98

Quoted at random: 7 compounds from above
SMILES | RVFV N-RNA FP
CC(=N\O)/C(=N\O)c1cccs1 | 99
CCN(CCC#N)c1ccccc1 | 94
CN1C(=O)c2ccc(NC(=O)c3c(F)c(F)c(F)c(F)c3F)cc2C1=O | 103
O=C1NC(=O)C2C1C(c1ccccc1)N1C3C(=O)NC(=O)C3C(c3ccccc3)N21 (configuration not stated) | 101
CC(=O)Nc1nnc(SC(C)C(=O)Nc2ccc(S(N)(=O)=O)cc2)s1 (configuration not stated) | 90
COC(=O)C1=C(NNc2ncc(Cl)cc2C(F)(F)F)CSC1 | 94
CC(Sc1ncn(-c2ccccc2)n1)C(=O)Nc1ccc(Cl)cc1 (configuration not stated) | 91

(cont.)
SMILES | RVFV N-RNA FP
CC1=C(C#N)C2C(/C1=N/O)C2(C)C (configuration not stated) | 92
C/C(=C\C(=O)c1ccc(C)o1)Nc1ccc(Nc2ccccc2)cc1 | 110
CCN1CCN(C(=O)c2ccccc2NS(C)(=O)=O)CC1 | 93
CC(C)(C)n1ncc2c(=O)n(CC(=O)c3ccc(Cl)cc3)cnc21 | 93
O=C(COc1ccccc1)Oc1ccccc1 | 95
Cc1ccc(Oc2ncccc2NC(=O)CN2CCC(NC(=O)c3ccccc3)CC2)c2c1CCC2 | 97
Cc1ccc(NC(=S)N2CCN(CCO)CC2)c(C)c1 | 95
CCCCSc1ncnc2c1cnn2-c1ccc(Cl)cc1 | 95
Cc1ncc(CC(=O)O)s1 | 101
CCCC(=O)NCc1ccccc1Cl | 90
Cc1nc2ccccc2c(=O)n1-c1ccc(NS(C)(=O)=O)cc1 | 95
O=C1c2ccccc2-c2nc3nnnn3nc21 | 114
Cc1cc(=O)n(Cc2ccccc2Cl)c(O)c1C#N | 98
COC(=O)c1ccc(NC(=O)COc2cccc3c2CCNC3=O)cc1 | 92
Cc1c(O)nc(SC2CC(=O)N(c3ccccc3)C2=O)[nH]c1=O (configuration not stated) | 97
O=C1CN(N=Cc2ccc([N+](=O)[O-])o2)C(=O)N1 | 97
CC(=O)n1c(C#N)c(O)c2ccccc21 | 93
C[C@H]1CN(C2CCC(C#N)(c3ccc(F)cc3)CC2)CC[C@@]1(C(=O)O)c1ccccc1 (some centres not stated) | 93
CSc1nsc(SC)c1-c1nn[nH]n1 | 91
CC(C)c1ccc(OCc2nnc(SCC(=O)NC3CCCCC3C)o2)cc1 (configuration not stated) | 91
COc1cccc(CNS(=O)(=O)c2ccc3c(c2)oc(=O)n3C)c1 | 100
CCCCc1ccc(NC(=O)CSCC(N)=O)cc1 | 97
CCOc1ccccc1C(=O)NCc1cn2ccsc2n1 | 96
CNC(=O)c1c(NC(=O)C2=COCCO2)sc(C)c1C | 96
CCC(=O)N1CCN(c2nc3c(C)c(Cl)ccc3s2)CC1 | 88
Following part:
SMILES | RVFV N-RNA FP
O=C(Nn1cnnc1)c1ccccc1CCc1ccccc1 | 95
O=C(Cc1ccccc1)OCc1nnc(-c2ccccc2)o1 | 95
C=CCOc1nc(-c2cccs2)cc(-c2ccco2)c1C#N | 100
O=C(CN1C(=O)c2ccccc2S1(=O)=O)N1CCC2(CC1)OCCO2 | 100
CCN(CC)CCCCN1c2ccccc2Oc2ccc(Cl)cc21 | 115
CCC(=O)c1ccc(CCCCCC(=O)O)s1 | 97
O=C(NCCOc1ccccc1)c1ccccc1 | 98
CN(C)c1ccc(/C=C2\C(=O)N(c3ccccc3)N=C2C(=O)O)cc1 | 92
O=C(COc1ccc(S(=O)(=O)Nc2ccccc2)cc1)N1CCOCC1 | 95
N#Cc1ccccc1OCc1ccccc1 | 97
Cc1noc(C)c1S(=O)(=O)N(Cc1ccccn1)Cc1ccccn1 | 94
O=C(CSc1ccccc1)N1CCN(c2ccccc2)CC1 | 89
CCn1c(CC(=O)OC)csc1=Nc1ccc(Cl)cc1 | 100
COc1cccc(C(=O)CS(=O)(=O)c2ccc(C)cc2)c1 | 80
CN(C)c1ccc(/C=C(\C#N)C(=O)OC(C)(C)C)cc1 | 94
CSc1ccc(S(=O)(=O)Nc2ccccc2C(=O)N2CCOCC2)cc1 | 90
